# NS1 inh: blocks influenza NS1 protein function; hit rate 0.4% among 270,000; AID 2326; Potency, µM (doses to about 46.1 µM), without a hit: at the highest dose activity, positive = more growth; S. cerevisiae slowed by influenza A NS1, growth recovery by OD600; active means well fitted rising curve with a large enough effect; inconclusive means small, poorly fitted or top-dose-only effect; inactive means no such curve, though single readings can be large or run the other way; further: nearly all actives have a fitted effect of over 50% in size
#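 S. cerevisiae expressing influenza A NS1, grown in glucose, washed, then diluted 1:100 into pH 6.0 -URA galactose medium with 23 nl compound. Growth recovery read as OD600; NS1-free strain serves as control.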
# SARS PLpro yeast: SARS-CoV PLP inhibition in yeast. S. cerevisiae expressing SARS-CoV PLpro, growth rescue; control for the full effect not named in the record. Potency, µM (series often up to 32.9 µM), for the others: at the highest dose activity, positive = growth rescue. hit rate 0.19% among 330,000; active means well fitted rising curve with a large enough effect; inconclusive means small, poorly fitted or top-dose-only effect; inactive means no such curve, though single readings can be large or run the other way; further: 0% is about no effect; nearly all actives have a fitted effect of over 55% in size; growth read by luminescence after 48 h
# MARV entry inh: Marburg virus entry inhibition; Marburg virus pseudotyped entry inhibition, cell reporter; control for the full effect not named in the record; about a third of the inactives were read at about 46 µM; Potency, µM (series often up to 37.8 µM), inactives show at the highest dose activity change, negative = inhibition, actives largely listed as inhibitors; hit rate 1.8% among 300,000; AID 540276; active = well fitted inhibition curve with a large enough effect; inconclusive = small, poorly fitted or top-dose-only effect, or effect the other way; inactive = flat fitted curve, though single readings scatter; tested in HEK293 cells; about a fifth of its hits are not listed in these tables; further: on the % scale 0 is the no-effect control and ±100 the full control effect; luciferase read-out
# RE007 growth inh: less growth of the S. pombe RE007 Vpr strain; S. pombe RE007 Vpr strain, BacTiter-Glo ATP luminescence, 24 h; control for the full effect not named in the record; Potency, µM (top dose mostly 92.2 µM), without a hit: top-dose activity change, negative = less growth; hit rate 0.21% among 360,000; AID 651644; active = well fitted falling curve with a large enough effect; inconclusive = small, poorly fitted or top-dose-only effect; inactive = no such curve, though single readings can be large or run the other way;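 further: on the % scale 0 is the no-effect control and ±100 the full control effect; nearly all actives have a fitted effect of over 50% in size; the assay follows cell death caused by Vpr and the record does not say whether a fall means rescue or toxicity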
#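 Fission yeast RE007 carrying one integrated HIV-1 vpr copy, seeded at OD 0.01 in PMG+AL medium with 23 nL pinned compound. Grown 24 h at 30 degrees; viability read by BacTiter-Glo luminescence after 5 min.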
# Cruzain inh noDet: inhibitors of Trypanosoma cruzi cruzain without detergent; P25779; purified cruzain, Z-FR-AMC fluorescence, no detergent; Potency, µM, without a hit: max response, negative = inhibition, hits mostly inhibitors; hit rate 2.3% among 200,000; AID 1476;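 further: plate controls were enzyme without inhibitor for no effect and buffer without enzyme for full effect; nearly all actives have a fitted effect of over 40% in size; top concentration of the series not given in the record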
# Target sequence (P25779 123-467 limits assumed): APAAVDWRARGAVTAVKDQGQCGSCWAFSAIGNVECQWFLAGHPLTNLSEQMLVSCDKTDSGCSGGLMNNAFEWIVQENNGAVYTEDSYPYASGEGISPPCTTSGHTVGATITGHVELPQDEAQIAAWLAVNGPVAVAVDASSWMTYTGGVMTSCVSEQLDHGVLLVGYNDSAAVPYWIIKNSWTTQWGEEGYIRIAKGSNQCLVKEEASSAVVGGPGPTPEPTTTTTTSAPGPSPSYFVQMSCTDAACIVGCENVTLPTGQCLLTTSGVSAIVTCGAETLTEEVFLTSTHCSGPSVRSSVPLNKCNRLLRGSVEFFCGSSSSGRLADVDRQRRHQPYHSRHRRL
#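 Purified cruzain at 1.5 nM, pre-incubated 15 min with compound at room temperature in 100 mM sodium acetate pH 5.5, 5 mM DTT, 0.00005% Triton X-100. Reaction started with 2 uM Z-FR-AMC; AMC fluorescence increase over 60 s gives rate.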
# 2A StopGo: lowers the luciferase signal of an FMDV 2A StopGo reporter; AID 1159524; human cells with a luciferase reporter of 2A StopGo recoding; control for the full effect not named in the record; Potency, µM (highest dose often 57.9 µM), inactives show at the highest dose signal change, negative = less light; hit rate 1.2% among 410,000; active = well fitted falling curve with a large enough effect; inconclusive = small, poorly fitted or top-dose-only effect; inactive = no such curve, though single readings can be large or run the other way; tested in HEK293T cells; further: on the % scale 0 is the no-effect control and ±100 the full control effect; nearly all actives have a fitted effect of over 45% in size; luciferase light after 4 h
# LASV entry inh: Lassa virus entry inhibition. Lassa virus pseudotype entry inhibition, cell reporter; control for the full effect not named in the record. Potency, µM (doses to about 37.9 µM), for the others: at the top dose activity change, negative = inhibition, hits mostly inhibitors. hit rate 1.2% among 300,000. AID 540256; active means well fitted inhibition curve with a large enough effect; inconclusive means small, poorly fitted or top-dose-only effect, or effect the other way; inactive means flat fitted curve, though single readings scatter; tested in HEK293 cells; further: on the % scale 0 is the no-effect control and ±100 the full control effect; nearly all actives have a fitted effect of over 50% in size; luciferase read-out
# Cruzain inh Det: inhibitors of Trypanosoma cruzi cruzain with detergent; Potency, µM, inactives show max response, negative = inhibition, usual class: inhibitors; purified cruzain, Z-FR-AMC fluorescence, 0.01% Triton; hit rate 0.43% among 200,000;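 further: plate controls were neutral wells for no effect and buffer without enzyme for full effect; nearly all actives have a fitted effect of over 40% in size; top concentration of the series not given in the record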
#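 Steps: dispense cruzain (1.5 nM final) in acetate buffer pH 5.5 with DTT and 0.01% Triton X-100; pin-transfer compounds; incubate 15 min RT; add Z-FR-AMC (2 uM final); read fluorescence every 30 s, using the 60 s intensity change.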
# * marks the source's active call; other numbers are inactive results; ? = inconclusive; . = no result given; & = joins results of further samples; [ ] = remark or other dose. Unless noted, the call rests on the fitted dose curve; in most records, active means well fitted curve in the direction sought with a large enough effect; inconclusive means small, poorly fitted or top-dose-only effect, or another doubt; inactive means no such curve, though single readings can be large; an effect the other way counts as inactive or inconclusive. Potency means the concentration at half of the fitted maximal effect.
SMILES,NS1 inh,SARS PLpro yeast,MARV entry inh,RE007 growth inh,Cruzain inh noDet,2A StopGo,LASV entry inh,Cruzain inh Det
COc1ccc(OC)c(CN2CCC(C(=O)N3CCOCC3)CC2)c1,-10%,-11%,?,5%,-9%,-25%,5%,-2.0%
Cc1ccc(-c2nn3c(=O)cc(CN4CCN(C(=O)Nc5cc(Cl)ccc5C)CC4)nc3s2)cc1,.,.,.,.,-16%,1%,8%[46.1 µM],2.5%
CS(=O)(=O)N1CCN(C(=O)CCc2ccccc2)CC1,20%,4%,?,7%,.,-13%,?,.
CCCC1CC(C(=O)Nc2ccccc2)C(=O)O1 (configuration not stated),.,.,18%[46.1 µM],18%,.,64%[activator],-15%,.
CCCSc1nc2c([nH]c3ccccc32)c(=O)n1C,.,.,.,.,-4%,-14%,?,0.0%
COc1ccc2nc3oc(C(=O)N4CCCCC4)cc3cc2c1,-45%,-20%,?,-14%,-5%,8%,?,-8.0%
Cc1ncoc1C(=O)Nc1ccc(Oc2ccccc2)cc1,-34%,-32%,17%,0%,-1%,2%,1%,-6.0%
CCOc1ccc(Nc2nc3ccccc3n3c(CC)nnc23)cc1,.,.,-22%[46.1 µM],.,-3%,-5%,11%[46.1 µM],-0.3%
O=S(=O)(c1ccc(F)c(Cl)c1)N1CCCC1,?,-2%,-8%,-12%,0%,8%,-1%,6.1%
O=S(=O)(N1CCCCC1)N1CCN(S(=O)(=O)N2CCCCC2)CC1,-5%,.,-2%&-2%,18%,10%,-17%,0%,0.4%
Cn1nnnc1SCC(=O)Nc1ccccn1,12%,0%,1%,10%,9%,8%,11%,6.5%
Cc1cc2oc(=O)cc(-c3ccccc3)c2c(C)c1-c1ccc(N(C)C)cc1,.,6%,.,-5%,14µM*,0%,.,0.9%

# Filtered by structure, those above containing an aryl thioether with sulfur outside any ring (two)
SMILES,NS1 inh,SARS PLpro yeast,MARV entry inh,RE007 growth inh,Cruzain inh noDet,2A StopGo,LASV entry inh,Cruzain inh Det
CCCSc1nc2c([nH]c3ccccc32)c(=O)n1C,.,.,.,.,-4%,-14%,?,0.0%
Cn1nnnc1SCC(=O)Nc1ccccn1,12%,0%,1%,10%,9%,8%,11%,6.5%

# The list continues.
SMILES,NS1 inh,SARS PLpro yeast,MARV entry inh,RE007 growth inh,Cruzain inh noDet,2A StopGo,LASV entry inh,Cruzain inh Det
Cc1ccc2nsnc2c1NC(=O)c1ccc2c(c1)OCCO2,6%,1%,-10%,0%,-9%,.,0%,-2.3%
Cc1cc(C)c(NC(=O)CSc2nnc(CNC(=O)c3ccccc3F)o2)c(C)c1,4%,?,-2%[46.1 µM],-23%,.,-11%,-9%[46.1 µM],.
O=C(O)C1CC=CCC1C(=O)Nc1cccc([N+](=O)[O-])c1 (configuration not stated),-4%,-1%,.,16%,.,-2%,.,.
C(=N\N1CCN(c2ccccn2)CC1)/c1cccc2ccccc12,2%,-1%,-1%[46.1 µM],-11%,.,3%,0%,.
CCOc1ccc(-n2c(=O)c3c4c(sc3n(CC(=O)NC(C)CC)c2=O)CCCCC4)cc1 (configuration not stated),.,.,5%[46.1 µM],.,-3%,-3%,17%[46.1 µM],-1.1%
CCS(=O)(=O)N1CCc2cc(C(=O)N3CCN(c4ccccc4)CC3)ccc21,.,.,-2%[46.1 µM],.,1%,-7%,27%[46.1 µM],-4.7%
Cc1cc(C)nc(Nc2nc3ccccc3o2)n1,1%,0%,-1%[46.1 µM],-14%,.,0%,-20%,.
CC(=O)Nc1ccc(NC(=O)c2cc(-c3ccc(C)c(C)c3O)n[nH]2)cc1,10%,1%,.,9%,.,5%,.,.
Cc1ccc(S(=O)(=O)CCC(=O)OCC(=O)NCC(=O)Nc2c(C)cc(C)cc2C)cc1,.,-10%,9%,13%,.,-20%,-11%,.
COCCCNC(=O)c1sc2nc(C)c(C(=O)Nc3ccc(C)cc3C)c(-c3ccc(Cl)cc3)c2c1N,.,.,?,.,?,?,-4%[46.1 µM],-8.4%
CCCCC(=O)N/N=C(\C)c1cccc(NC(=O)C2CC2)c1,-5%,-3%,?,12%,0%,5%,0%,-1.1%
COc1cccc(/C=N/Nc2nc(C)cc(=O)[nH]2)c1OC,4%,-2%,?,6%,.,3%,18%[46.1 µM],.

# Just MARV entry inh and Cruzain inh noDet, for some of the entries so far:
SMILES	MARV entry inh	Cruzain inh noDet
COc1ccc2nc3oc(C(=O)N4CCCCC4)cc3cc2c1	?	-5%
Cc1ncoc1C(=O)Nc1ccc(Oc2ccccc2)cc1	17%	-1%
CCOc1ccc(Nc2nc3ccccc3n3c(CC)nnc23)cc1	-22%[46.1 µM]	-3%
O=S(=O)(c1ccc(F)c(Cl)c1)N1CCCC1	-8%	0%
O=S(=O)(N1CCCCC1)N1CCN(S(=O)(=O)N2CCCCC2)CC1	-2%&-2%	10%

# Next part
SMILES,NS1 inh,SARS PLpro yeast,MARV entry inh,RE007 growth inh,Cruzain inh noDet,2A StopGo,LASV entry inh,Cruzain inh Det
COc1ccc(C2C(=O)N(C3CCCCC3)CC(=O)N2C2CCCC2)cc1 (configuration not stated),-11%,-7%,-20%,5%,1%,-12%,-43%[14.3 µM],-0.3%
Cc1ccc2c(c1)N(CC(=O)NCCC1=CCCCC1)C(=O)c1cccnc1O2,-7%,-13%,.,-2%,.,-20%,.,.
COc1ccc(C(=O)NCCSc2ccccc2)cc1,-1%,4%,?,-7%,10%,-68%,?,-3.2%
Cc1ccc(NC(=O)CCc2nc3ccccc3s2)c(O)c1,7%,0%,.,-10%,.,11%,.,.
O=C(c1n[nH]c(=O)c2ccccc12)N1CCN(C2c3ccccc3-c3ccccc32)CC1,-32%,-5%,?,-13%,-5%,?,-26%,-19%
O=C(/C=C/c1ccccc1Cl)c1ccc[nH]1,-48%,-53%,?,-26%,-19%,38%[activator],0%,-12%
CCc1cccc(CC)c1NC(=S)NCc1ccc2[nH]c(C)cc2c1,18%,?,-39%,-5%,?,-7%,18µM*,-3.4%
COc1ccc(C2=NS(=O)(=O)N(C)C(C(=O)Nc3ccc(OC)c(OC)c3)=C2)cc1,8%,4%,.,-3%,.,?,.,.
O=C(OCC(=O)N1CCN(C(=O)c2ccco2)CC1)c1cn(-c2ccccc2)nc1-c1ccccc1,-66%,-18%,-19%&-19%,6%,?,-7%,?,-2.7%
CN(C)C(CNc1ccc([N+](=O)[O-])cc1C#N)c1ccccc1 (configuration not stated),.,1%,4%[46.1 µM],-22%,.,10%,14%,.
N=c1c(C(=O)NCc2ccc3c(c2)OCO3)cc2c(=O)n3ccccc3nc2n1Cc1cccnc1,4%,1%,-23%&-23%,8%,?,23%,3%,-14%
CC1=CC=CC2=NC(=O)CC(C)(C(=O)O)N12 (configuration not stated),-2%,-1%,-3%[46.1 µM],6%,.,-13%,-9%,.
CCCn1cnc2c(oc3ccccc32)c1=O,-1%,-3%,14%,1%,.,51%[activator],21%,.
CCOc1ccc2nc(NC(=O)c3ccoc3C)sc2c1,-47%,-16%,?,10µM*,-15%,-63%,?,-2.4%
Cc1ccc(CNCC(=O)Nc2ccc(N3CCOCC3)cc2)cc1,1%,0%,1%[46.1 µM],-4%,.,-22%,1%,.
O=C(CSCc1nc2ccccc2[nH]1)Nc1ccc2ccccc2c1,-8%,-1%,13%,17%,?,3%,-16%,-22%
O=C(Nc1ncn[nH]1)c1ccc(Cl)cc1Cl,.,-3%,11%[46.1 µM],-12%,.,33%[activator],.,.
CCOC(=O)C1CCN(S(=O)(=O)c2ccc(OC)c(OC)c2)CC1,0%,0%,-2%,6%,-4%,-13%,9%,1.5%
N#CCSc1nc2[nH]ncc2c(=O)n1-c1ccccc1Br,-13%,-10%,-15%,-14%,?,-23%,12%,-23%
O=C(C(=O)N1CCN(c2ccc(F)cc2)CC1)c1cn(CC(=O)N2CCOCC2)c2ccccc12,-10%,4%,.,-11%,.,-9%,.,.
CC(C)(C)c1ccc(S(=O)(=O)/N=C2\C=C(NS(=O)(=O)c3ccccc3)C(=O)c3ccccc32)cc1,10%,-9%,-11%[46.1 µM],-15%,.,28%,?,.
Cn1c(CN2CCOCC2)nnc1SCc1ccccc1,14%,4%,1%,-18%,5%,.,0%,4.4%
CC(C)OCCCNC(=O)NC(=O)c1ccc(Cl)cc1,.,-1%,4%,-28%,.,9%,3%,.
CCN(CC(=O)Nc1ccccc1C(F)(F)F)C(=O)C1CSC2(C)CCC(=O)N12 (configuration not stated),.,7%,0%[46.1 µM],14%,.,20%,22%,.
COc1ccc(N2CCN(C(CNC(=O)C(=O)NCc3ccc(C)cc3)c3cccnc3)CC2)cc1 (configuration not stated),.,.,.,.,5%,?,-2%[46.1 µM],0.2%
Cc1ccc(CCNC(=O)C23CN(Cc4ccccc4)CC2C(c2cccc([N+](=O)[O-])c2)=NO3)cc1 (configuration not stated),12%,-1%,0%,-7%,-27%,-23%,.,-0.9%
